Bead autofluor: counter-screen for toxin protease inhibitors: compound fluorescence; actives 3.1% (n = 360,000); AID 624483; fluorescence intensity (concentration not given with the values); compound autofluorescence counterscreen, microsphere flow cytometry; hits give high values;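 active means at least 3 SD above the mean of all compounds, about 16000 in these data; inconclusive means too few beads counted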;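 further: 100 nL of 1 mM stock went into each well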
BJeLR viability: BJeLR cell viability loss | BJeLR (HRASV12) viability, CellTiter-Glo ATP luminescence, 48 h; reference of the scale not given here | inhibition, % (test concentration not listed) | actives 0.17% (n = 300,000);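 active means replicate mean above 50%; inconclusive means above 50% but judged a plate artefact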;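 further: 50 nL library stock added to about 25 µL; numbers are from one replicate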
Sa RN4220 lethal: kills Staphylococcus aureus RN4220; actives 0.33% (n = 330,000); inhibition, % (test concentration not listed); AID 1259311; S. aureus RN4220 growth, OD600, 16 h;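 active means z-score of -3 or lower and OD600 up to 0.18 on both plates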;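 further: plate controls were untreated cells for no effect and reference antibiotic for full effect; stock transfer was 100 nL into about 80 µL; one replicate is shown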
PrP UTR inh: inhibition of PrP 5' UTR reporter expression. cell-based PrP 5' UTR mRNA reporter, plate reader. inhibition, % (test concentration not listed). actives 0.35% (n = 340,000). AID 488862;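 active means every replicate at 50% or more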;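 further: 0 = median of the neutral control wells; tested in H4 reporter cells; numbers are from one replicate; inactives centre near -14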
Mtb hypoxia rep: reduces hypoxia-regulated biosensor signal in M. tuberculosis. M. tuberculosis hypoxia-regulated fluorescent reporter, fluorescence. fluorescence inhibition, % (no concentration beside the values). actives 0.1% (n = 300,000);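 active means 35 to 45% if threefold the growth effect, above 45% if 1.5-fold the growth effect; inactive means the rest, general growth blockers included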;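 further: wells of about 50 µL received 100 nL stock; 0% = vehicle wells and 100% = reference inhibitor wells; whole bacteria with a GFP reporter of the hypoxia response; strong numbers were not always called active; many hits fall short of the cut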
Sa ugtP lethal: compounds lethal to S. aureus RN4220 ugtP deletion mutant; growth inhibition, % (test concentration not listed); OD600 growth, 16 h; some inactives read as strong as hits; AID 1259309; actives 0.54% (n = 330,000);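 active means z-score under -3 and OD600 up to 0.15 on both plates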;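 further: plate controls were untreated wells for no effect and antibiotic for full effect; wells of about 80 µL received 100 nL stock; the first replicate is given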
Mtb hypoxia rep growth: second read-out of Mtb hypoxia rep, no call of its own (marks repeat the call); growth inhibition, %; measured here: M. tuberculosis growth (absorbance);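 0% = vehicle and 100% = reference antibiotic; read after six days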
Starred values were filed as active, the others as inactive; ? = inconclusive; / = no result given.

Value order: Bead autofluor, BJeLR viability, Sa RN4220 lethal, PrP UTR inh, Mtb hypoxia rep, Mtb hypoxia rep growth, Sa ugtP lethal
- CCOc1ccc(C2CC(c3c(O)c4ccccc4oc3=O)=NN2c2ccccc2)cc1OC (centres undefined)
 : 6192, 2, -0.3, -26, 1, -4, -8
- Cc1ccc(CN2CCNC(=O)C2CC(=O)NCCCn2ncc3ccccc32)o1 (centres undefined)
 : 5067, /, 5.1, -14, 4, 8, 3
- O=C1CN(C(=O)CN2C(=O)NC(c3ccccc3)(c3ccccc3)C2=O)c2ccccc2N1
 : 3975, /, 2.2, 10, -5, -2, -5
- Cc1ccc(-c2nc(CNC(=O)c3ccco3)cs2)cc1
 : 6077, -4, 4.9, -8, 5, 8, 5
- COc1cc(CNCc2cccs2)ccc1OCC(N)=O
 : 9404, 0, 8.8, -13, 14, 7, 1
- COc1ccc(NC(=O)CN(C)C(=O)CCSc2ccc(C)cc2)cc1
 : 6619, 5, 1.4, -9, 7, 3, 3
- COc1ccc(-c2csc(N)n2)cc1
 : 2080, -4, 0.8, -35, 9, 3, 4
- COc1ccc(CNC(=O)C(C)OC(=O)c2cccc(N(C)C)c2)cc1 (centres undefined)
 : ?, /, 4.6, -1, 1, 5, 2
- CCS(=O)(=O)NCC(c1cccnc1)N1CCN(c2ccc(OC)cc2)CC1 (centres undefined)
 : 3055, 0, 4.9, -10, 6, 13, -5
- CCOC(=O)c1c(NC(=O)COc2ccc3ccc(=O)oc3c2)sc(C(=O)N(C)C)c1C
 : 5214, -24, 2.8, -2, 8, 8, -3
- O=C1C2C3C=CC(C3)C2C(=O)N1c1cccc(-c2nc3ccccc3o2)c1 (centres undefined)
 : 3154, -2, 4.1, -13, 7, 3, -6
- Cc1nn(Cc2ccccc2Cl)c(C)c1NC(=O)CCCn1nc([N+](=O)[O-])c(Cl)c1C
 : 2014, -15, 6.4, -9, 2, 9, 6
- COC(=O)CCC(=O)Nc1cccc2c(NC(=O)CCC(=O)OC)cccc12
 : 5934, -1, -4.6, -29, /, /, -1
- C=C(COC(C)=O)CC1CC(O)[C@]2(C)OC3CC4OC5C[C@]6(C)O[C@]7(C)CCC8OC9C[C@]%10(C)OC%11C(C)=CC(=O)OC%11CC%10OC9C[C@@H](C)C8OC7CC6O[C@]5(C)C/C=C\C4OC3CC2O1 (some centres undefined)
 : 3519, 8, /, -11, /, /, /
- O=C(Nc1ccc(Cl)c(Cl)c1)C1CCCCC1
 : 3732, /, -9.4, -33, 6, 6, 6
- CCCCOc1ccc(C(=O)NCCOc2cccc(OC)c2)cc1
 : 4027, -6, -0.8, -9, 10, -1, 1
- CC(C)(C)NC(=O)C(c1ccc(F)cc1)N(Cc1ccco1)C(=O)CCC(=O)Nc1ccccn1 (centres undefined)
 : 3811, -20, 6.9, -36, 13, 9, 1
- O=C(NCCc1ccccc1)C1CCN(C(=O)c2ccc(F)cc2)CC1
 : 3185, -3, 5.0, -13, -1, 15, 10
- CCOc1ccc(-c2nc(C#N)c(NCc3ccco3)o2)cc1
 : 2123, 7, -4.4, -22, 9, 14, 5
- O=C(NCCCn1ccnc1)c1cc(-c2ccc(Cl)cc2)nc2ccccc12
 : 3073, 9, 4.9, -9, 16, 15, -4
- O=C(COC(=O)c1ccc(Cl)cc1O)NC(=O)C1CCCCC1
 : 4149, 8, 2.6, -43, 12, -6, -5
- O=C(CCNS(=O)(=O)c1ccc(OC(F)(F)F)cc1)N1CCN(S(=O)(=O)c2cccc(F)c2)CC1
 : /, 3, -1.0, -23, -2, 4, 3
- Cc1ccc(C(=O)N/N=C/c2ccc(-c3cccc(Cl)c3)o2)cn1
 : 4142, -7, /, -19, /, /, /
- COCCN1C(=O)C(=O)/C(=C(/O)c2ccc(S(=O)(=O)N3CCOCC3)cc2)C1c1ccc(OC)c(OC)c1 (centres undefined)
 : 6329, -3, 0.8, -6, 5, 4, -1
- Cc1ccccc1CNc1nc(N)n(-c2ccccc2)n1
 : 5753, 7, -0.8, -30, -1, 16, 6
- O=C(O)/C(=C/c1ccco1)NC(=O)c1ccc(Br)o1
 : 4012, -16, 5.4, -23, 14, 1, 1
- C[C@@]12CCC=C[C@H]1[C@H](c1ccccc1Br)N(Cc1ccccc1)C2=O
 : 3458, /, 3.9, 41, 3, 3, -17
- CCOC(=O)CC(NS(=O)(=O)c1ccc(OC)c(C)c1)c1cccc([N+](=O)[O-])c1 (centres undefined)
 : 2478, 4, 8.5, 0, -4, 1, 7
- CCOc1cc(/C=N\NC(=O)c2ccc(NC(=O)C(C)(C)C)cc2)ccc1OC(=O)c1ccc(C)cc1
 : 4267, 5, /, -17, /, /, /
- C/C(=N\N=C1/NC(=O)C(C)S1)c1ccc([N+](=O)[O-])cc1 (centres undefined)
 : 2027, -20, /, -10, /, /, /
- Cc1ccc(S(=O)(=O)N2CCCC2C(=O)NC2CCCCC2)cc1 (centres undefined)
 : 3438, 22, -16, -16, 15, 6, -7
- CCOC(=O)N1CCN(C(=O)c2cc3cc(Br)ccc3oc2=O)CC1
 : 6083, -4, 4.9, -9, /, /, -3
- Cc1cc(C)n(S(=O)(=O)c2cc(C)c(C)cc2C)n1
 : 9187, -3, 0.5, -23, -13, -7, -7
- CCNNC(=O)C(O)(c1cccc(C)c1)c1cccc(C)c1
 : 2650, -4, 1.9, -11, 4, 6, 9
- CCn1ncc([N+](=O)[O-])c1C(=O)Nc1c(C)nn(Cc2ccc(F)cc2)c1C
 : 5966, 0, 2.9, -13, -9, 3, -15
- Oc1ccc(C[C@@H]2CNCCN2CCC23CC4CC(CC(C4)C2)C3)cc1
 : 3152, 6, /, -15, /, /, /
- CN(C(=O)C1CCC(=O)N(Cc2ccccc2F)C1)C1CCOCC1 (centres undefined)
 : 5511, -2, 1.2, -9, -1, 4, 3
- COc1cccc(/C=C/C(=O)OCC(=O)N2CCCc3ccccc32)c1
 : /, -11, 2.3, -14, 1, -7, 5
- CC(C)CC(=O)NC(=S)Nc1nc(-c2ccccc2)cs1
 : 2172, 12, -1.2, 7, 11, 6, 10
- CCOc1ccc(N=Nc2c(=O)[nH]n3c(=O)c4c([nH]c23)CCCC4)cc1
 : 2456, 10, 11, -2, 25, -3, 2

By substructure: the compounds so far with a nitro group on carbon (4)
Value order: Bead autofluor, BJeLR viability, Sa RN4220 lethal, PrP UTR inh, Mtb hypoxia rep, Mtb hypoxia rep growth, Sa ugtP lethal
- Cc1nn(Cc2ccccc2Cl)c(C)c1NC(=O)CCCn1nc([N+](=O)[O-])c(Cl)c1C
 : 2014, -15, 6.4, -9, 2, 9, 6
- CCOC(=O)CC(NS(=O)(=O)c1ccc(OC)c(C)c1)c1cccc([N+](=O)[O-])c1 (centres undefined)
 : 2478, 4, 8.5, 0, -4, 1, 7
- C/C(=N\N=C1/NC(=O)C(C)S1)c1ccc([N+](=O)[O-])cc1 (centres undefined)
 : 2027, -20, /, -10, /, /, /
- CCn1ncc([N+](=O)[O-])c1C(=O)Nc1c(C)nn(Cc2ccc(F)cc2)c1C
 : 5966, 0, 2.9, -13, -9, 3, -15

The list continues.
Value order: Bead autofluor, BJeLR viability, Sa RN4220 lethal, PrP UTR inh, Mtb hypoxia rep, Mtb hypoxia rep growth, Sa ugtP lethal
- Cc1cc(C)c(COCc2cc(C=NO)c(C)cc2C)cc1C=NO
 : /, /, 4.1, /, 4, 7, 41
- Nc1cc(Cl)ccc1N1CCOCC1
 : 4189, -4, 0.7, -5, /, /, 6
- O=C(Cc1cccs1)N1CCN=C1SCc1ccc(F)cc1
 : 3543, 2, 3.3, -16, 11, 7, 18
- Cc1cc(NC(=O)CSc2c[nH]c3ccccc23)no1
 : 6400, -2, 0.3, -10, 3, -5, 0
- Cc1ccc(-n2c(C)nnc2SCC(=O)N2CCc3ccccc3C2)cc1
 : 2158, 7, 8.3, -3, 20, 6, 1
- CCN(CC)C1CCN(C(=O)c2cc(COc3ccc(F)cc3Cl)on2)C1 (centres undefined)
 : 3838, 11, 3.0, -17, 14, 13, 6
- CCOC(=O)c1nn(-c2ccccc2Cl)c(=O)cc1OCC(=O)Nc1cccc(OC)c1
 : 4542, 0, 7.5, -7, -4, -6, 12
- CCOC(=O)C1=C(C)N=C2SC(C)C(=O)N2C1/C=C/c1ccccc1OC (centres undefined)
 : 2777, -11, 1.5, -2, -1, -5, -1
- CCOc1ccc(NC(=O)CSc2nc3ccccc3c(=O)n2CCCC(=O)NCC2CCCO2)cc1 (centres undefined)
 : 4218, -7, 0.8, -8, 7, -1, -2
- Cc1cccc(-n2cnc3cc(C(=O)N4CCc5ccccc54)ccc32)c1
 : 2249, 5, -3.2, -13, 6, 6, 10
- Cc1cccc(NC(=O)c2ccccc2NC(=O)c2ccco2)c1
 : 5229, 8, 7.4, -6, 19, 19, -7
- CC(C)(C)c1ccc(C(=O)NCc2nnc(SCC(=O)NCC3CCCO3)o2)cc1 (centres undefined)
 : 4597, 1, 0.6, -7, 4, -2, 4
- CN(C)Cc1ccc(O)c(CCc2ccccc2)n1
 : 2918, -11, 1.3, -18, /, /, 6
- COc1ccc(-n2c(SCC(=O)N(C)C3CCS(=O)(=O)C3)nc3ccc(O)cc3c2=O)cc1OC (centres undefined)
 : 3992, /, 0.9, -15, 17, 7, 4
- O=C(/C=C/c1ccc(Cl)cc1Cl)n1cccn1
 : 3445, -9, 1.4, -1, /, /, 3
- CCOC(=O)CSc1c(-c2ccc(Cl)cc2)[nH]c2ccccc12
 : 2487, 3, -5.6, -2, -9, 0, 7
- O=C(O)c1ccccc1C(=O)Nc1cccc([N+](=O)[O-])c1
 : 5997, 2, -1.0, -19, 10, 0, 3
- Cc1ccc(NC(=S)NN=Cc2ccc(Cl)c([N+](=O)[O-])c2)cc1
 : /, /, -1.1, /, -14, -5, -7
- CCCN(CCC)CCNC(=O)CS(=O)Cc1nc(-c2ccc(C)cc2)oc1C (centres undefined)
 : 5210, 4, 1.3, -1, 7, 10, 1
- CC(=O)c1cccc(Nc2nc(N3CCOCC3)nc(N3CCOCC3)n2)c1
 : 5594, -1, 2.4, -16, 10, 8, 0
- Cc1cc(N2CCN(c3cccc(C)c3C)CC2)nc(-c2ccccc2)n1
 : 4282, -1, -3.1, -19, /, /, -16
- CCCNC(=O)N1CCC(C(=O)c2cccc(F)c2)CC1
 : 2217, -7, 5.0, -30, /, /, 3
- c1ccc(CSc2ccc(-c3ccc4c(c3)OCO4)nn2)cc1
 : 7090, -9, 12, -84, 10, 6, -6
- CC(=O)Nc1ccc(NC(=O)CCc2ccc(C)o2)cc1
 : 5111, 0, 5.6, -37, 2, 0, 4
- CC1CCCN(C(=O)Cc2cn(Cc3cccc(Cl)c3)c3ccccc23)C1 (centres undefined)
 : 2471, -5, -2.2, -11, 2, 2, -18
- C=CCN=C(NC#N)SC
 : 3283, -2, 4.8, -6, 4, 3, 6
- CCOCC(=O)N1CCc2ccccc21
 : 2350, 4, -3.9, -11, /, /, -4
- CCCC(=O)C1=C(O)C(C(=O)OC)C(C)(C)CC1=Nc1ccc(C)cc1 (centres undefined)
 : 3386, 9, -1.2, 5, 6, 11, 12
- CC(C)(C)NC(=O)c1ccc2c(c1)N(CC(=O)N1CCCCC1)C(=O)C(C)(C)O2
 : 6777, -7, -2.5, -19, 12, 11, 3
- O=C(CCC1CCCN(c2ncccn2)C1)N1CCN(c2ccccn2)CC1 (centres undefined)
 : 4799, 0, -2.8, -20, -13, 4, -9
- COC(=O)c1c(NC(=O)CCc2ccc(C)o2)sc(C)c1C
 : 4777, 13, 5.3, -16, /, /, 27
- COc1cccc(-c2nc(CS(=O)CC(=O)NC(C)CCc3ccccc3)c(C)o2)c1 (centres undefined)
 : 4501, 1, -0.8, -4, -12, -11, -4
- Cc1ccc(OC(=O)COc2ccccc2C)cc1
 : 3589, -1, 2.7, -1, 14, -4, 3
